Screening results from PubChem.
Vif TR-FRET: inhibitors of Vif binding to APOBEC3G peptide, primary screen, biochemical, TR-FRET, GST-Vif 1-94, biotin-A3G peptide, dose response retest (AID 1117319); 0.57% of 260,000 active; inhibition, %; hits with a dose series show IC50 in µM; TR-FRET GST-Vif / biotin-A3G peptide binding; higher % means a stronger effect; test concentration not given here; strong numbers were not always called active;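 active means above the screen mean plus three standard deviations and confirmed in dose response; inconclusive means results disagree or hit not tested in dose response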;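 further: Vif residues 1-94 fused to GST binding biotinylated APOBEC3G peptide 110-148; 0% = full assay without inhibitor and 100% = GST in place of GST-Vif; retest series ran down from 100 µM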
AF4-AF9 inh: MLL-AF4/AF9 protein interaction inhibition; P42568; AlphaScreen, biotin-AF4 peptide binding to FLAG-AF9; inhibition, % at 10 µM; 0.47% of 350,000 active;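 active means every replicate reaching a set inhibition limit, whatever the replicate mean, cut at about 25% in these data; inconclusive means mean inhibition reaches that limit but some replicates miss it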;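 further: 0% = plate neutral control median and 100% = total signal loss; the record names both 10 and 1 µM as test concentration; the first replicate is given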
Target sequence (P42568 whole entry, looked up): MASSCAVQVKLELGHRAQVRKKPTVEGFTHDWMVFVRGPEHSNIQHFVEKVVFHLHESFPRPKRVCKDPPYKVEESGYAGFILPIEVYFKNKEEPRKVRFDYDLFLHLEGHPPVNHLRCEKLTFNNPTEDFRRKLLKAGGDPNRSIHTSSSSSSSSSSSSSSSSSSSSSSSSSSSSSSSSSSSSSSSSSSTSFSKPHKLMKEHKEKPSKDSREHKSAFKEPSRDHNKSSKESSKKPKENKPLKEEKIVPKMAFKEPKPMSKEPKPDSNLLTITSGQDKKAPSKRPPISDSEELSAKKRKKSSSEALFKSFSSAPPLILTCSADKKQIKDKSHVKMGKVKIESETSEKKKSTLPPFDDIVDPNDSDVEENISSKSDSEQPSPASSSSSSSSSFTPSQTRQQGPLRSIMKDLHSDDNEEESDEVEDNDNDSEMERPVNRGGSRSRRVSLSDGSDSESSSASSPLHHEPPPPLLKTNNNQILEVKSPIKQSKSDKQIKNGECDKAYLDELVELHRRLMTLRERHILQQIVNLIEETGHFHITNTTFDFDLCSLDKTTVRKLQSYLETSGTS
RanGTP-Imp inh: disruptors of Ran-importin-beta complex formation – biochemical, FRET, CFP-Ran, YFP-importin-beta, homogeneous, primary screen; cell-free CFP-Ran/YFP-importin-beta FRET ratio; inhibition, % (no concentration beside the values); 1.1% of 300,000 active; AID 2216;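 active means most replicates above 15%; inconclusive means exactly half above 15%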;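 further: 0% = DMSO wells and 100% = Ran loaded with GDP instead of GTP; wells of about 40 µL received 100 nL stock; the first replicate is given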
E coli growth: blocks Escherichia coli growth | OD600 absorbance (test concentration not listed) | OD600, 23 h; hits give low values | AID 1053175 | 0.21% of 330,000 active;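 active means OD600 absorbance below the run mean of sample wells minus 3.6 SD, in any replicate, cut at about 0.56 in these data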;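 further: stock transfer was 300 nL into about 60 µL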
UCH37 inh: human UCH37 deubiquitinating enzyme inhibition. 0.33% of 330,000 active. Q9Y5K5. AID 588478. inhibition, % (concentration not given with the values). purified proteasome/UCH37, Ub-AMC cleavage fluorescence;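 active means mean of two replicates above 20%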;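 further: 0% = compound-free wells with enzyme and 100% = wells lacking proteasome; stock transfer was 100 nL into about 20 µL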
Target sequence (Q9Y5K5 whole entry, looked up): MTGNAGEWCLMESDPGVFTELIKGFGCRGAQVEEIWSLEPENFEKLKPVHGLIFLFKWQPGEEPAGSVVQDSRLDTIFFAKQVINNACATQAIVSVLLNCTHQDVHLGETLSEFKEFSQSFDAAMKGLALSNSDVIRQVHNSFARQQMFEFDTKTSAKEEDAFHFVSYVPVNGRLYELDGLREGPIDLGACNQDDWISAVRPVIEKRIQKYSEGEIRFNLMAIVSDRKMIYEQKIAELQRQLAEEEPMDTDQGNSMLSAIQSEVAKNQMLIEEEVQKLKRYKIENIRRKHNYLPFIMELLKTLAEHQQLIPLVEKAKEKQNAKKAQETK
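Assay system: Proteasome-bound UCH37. Buffer or medium: pH 7.4 Tris-HCl (50 mM) with ovalbumin, ATP-MgCl2, DTT. Incubation: 30 min preincubation with enzyme, 25 min cleavage at room temperature. Measured by: fluorescence, ex 355 nm, em 460 nm. Read-out basis: percent inhibition. Control set: wells without proteasome as full block, compound-free enzyme plus substrate as uninhibited.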
HNF4A DNA FP: change in binding of human HNF4 alpha to DNA; HNF4a-FITC DNA binding, fluorescence polarization, 1 h; activity change, % at 10 µM; 0.3% of 360,000 active; in the data active means activity change above about 30%, passing the limit was not always enough;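 further: controls were the assay level and a saturating level of protein; the project sought stronger binding though the title names inhibitors; some compounds called inactive have numbers as strong as hits; positive values seem to mean higher polarization but the record does not say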
FGF22 binding: FGF22 (human) thermal shift binding | Q9HCT0 | recombinant FGF22 thermal shift, SYPRO orange fluorescence; percent of sucrose octasulfate shift, DMSO zero | calls only at 9.99 µM | 1.5% of 340,000 active;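 active means melting point raised past a set limit in the mean and every replicate; inconclusive means no clear call; three in four hits are not shown here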
Target sequence (Q9HCT0 whole entry, looked up): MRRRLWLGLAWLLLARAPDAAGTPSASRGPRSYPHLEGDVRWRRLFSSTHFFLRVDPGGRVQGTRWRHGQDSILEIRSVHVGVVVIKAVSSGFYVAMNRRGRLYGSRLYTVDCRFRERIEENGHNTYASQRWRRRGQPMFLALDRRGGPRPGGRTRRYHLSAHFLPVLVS
Starred values were filed as active, the others as inactive; i = inactive; ? = inconclusive; · = no result given; & = joins results of further samples.

HNF4A DNA FP,RanGTP-Imp inh,AF4-AF9 inh,UCH37 inh,E coli growth,Vif TR-FRET,FGF22 binding,SMILES
8.4,-2.9,-1.6,1.3,0.68,·,i,C[C@@H]1[C@H]2[C@@H](O[C@@H]3O[C@H](CO)[C@@H](O)[C@H](O)[C@H]3O)OC=C(C(=O)O)[C@H]2C[C@@H]1O
1.8,·,-17,3.2,0.7,·,i,Cc1cc(Br)ccc1NC(=O)CSCc1c(C)noc1C
-1.7,-2.6,3.9,6.7,0.71,3%,i,CCCS(=O)(=O)c1c(S(=O)(=O)CCC)c2ccc(C(N)=O)cn2c1C(=O)c1ccc(OC)cc1
-1.1,0.7,-0.4,-0.2,0.67,-14%,·,COc1cc(OC)cc(N(C(=O)CNC(=O)c2cccs2)C(C(=O)NCC2CCCO2)c2ccc(OC)c(OC)c2)c1 (stereo unspecified)
1.0,4.2,-1.7,·,·,3%,i,Cc1cc(C)nc(/N=C(\N)N2CCCCC2)n1
-0.6,0.3,·,0.7,0.72,?,·,COC(=O)c1cc(C(=O)Nc2ccc(C)cn2)cc([N+](=O)[O-])c1
0.8,1.8,·,-5.2,0.76,-6%,·,Cc1ccccc1S(=O)(=O)Oc1ccccc1C(=O)Oc1ccccc1
2.0,-8.2,2.2,3.8,0.71,-6%,i,CCC(CC)NC(=O)c1cccc(NC(=O)C(C)C)c1
6.0,-2.6,2.4,1.6,0.74,-7%,i,Cc1nc2ccccc2c2oc(C(=O)NCC3COc4ccccc4O3)cc12 (stereo unspecified)
-92,·,-3.2,9.9,0.7,25%,i,CCCCCCn1c(=O)[nH]c2nc3cc(N)c(C)cc3nc2c1=O
-1.1,·,-1.5,·,·,-5%,i,O=C(N/C(=C/c1cccc(Br)c1)C(=O)N1CCOCC1)c1ccco1
3.4,1.9,-6.4,0.8,0.68,·,·,COc1ccc(C2=C/C(=C\c3ccc(OC(C)=O)cc3)C(=O)O2)cc1
1.8,3.0,-0.2,-70,0.68,·,i,Cc1nn(C)cc1C(C)NC(=O)c1cc(COc2cccc3cnccc23)on1 (stereo unspecified)
-1.1,3.8,9.2,1.8,0.77,4%,i,Cc1ccc(C)c(N2CCN(CCCNC(=O)Cn3cc4c(n3)CCCCC4)CC2)c1
1.1,-6.1,-0.4,-0.2,0.66,3%,i,O=C(CN1C(=O)NC2(CCCC2)C1=O)OCCOc1ccccc1Cl
1.2,-3.9,·,-1.0,0.7,6%,·,CCOC(=O)C(C)Sc1nc(C2CC2)cc(C(F)(F)F)c1C#N (stereo unspecified)
-4.6,0.7,-11,5.8,0.76,17%,i,COCCCN(C(=O)Cn1ncc2c(=O)oc3ccc(C)cc3c21)C(C)c1ccncc1 (stereo unspecified)
2.2,1.4,-9.0,-1.2,0.73,-5%,i,Cc1nnc(NC(=O)C(C)Sc2nncn2C)s1 (stereo unspecified)
3.5,?,0.5,4.0,0.69,-4%,i,CCCCCN1CC(=O)N2C(C)c3[nH]c4ccccc4c3C[C@H]2C1=O (stereo partly specified)
-2.6,2.9,3.4,6.1,0.68,·,i,Cn1c(=O)n(C)c2cc(NC(=O)c3ccccc3NS(C)(=O)=O)ccc21
0.6,·,3.3,·,·,1%,i,COc1cc(/C=C/C(=O)OCC(=O)c2ccc[nH]2)ccc1O
-1.2,0.1,-27,4.6,0.69,1%,i,Cc1cc([N+](=O)[O-])nn1CCCC(=O)Nc1cccnc1Cl
0.1,1.0,-0.1,·,·,-10%,i,O=C(CCC(=O)N1CCN(S(=O)(=O)c2ccc3ccccc3c2)CC1)NCC(F)(F)F
-1.7,·,7.6,·,·,-1%,i,COc1cc(/C=N/NC(=O)c2ccccc2Cl)ccc1Oc1ccc([N+](=O)[O-])cn1
-0.6,3.6,3.7,·,·,·,i,COc1cc(/C=N/Nc2nncn2N)ccc1OCc1c(C)no[n+]1[O-]
-4.3,·,0.9,·,·,·,i,CC(=O)c1ccccc1NC(=O)CN1C(=O)NC2(CCCCCCC2)C1=O
-2.6,2.5,0.4,-4.1,0.65,7%,i,Cc1[nH]nc2c1[C@@H](c1ccccc1[N+](=O)[O-])C(C#N)=C(N)O2
-0.4,3.9,-18,3.8,0.7,7%,i,Oc1ccc(Br)cc1-c1cc(-c2ccccc2Cl)[nH]n1
-1.5,1.3,·,3.4,0.69,27%,·,CC(C)(C)N(NC(=O)Nc1ccc(Cl)c(Cl)c1)C(=O)c1ccccc1
-5.6,·,-1.4,·,·,·,i,Cc1ccc(S(=O)(=O)N2[C@@H](c3ccccc3F)C(C(=O)O)=CC[C@H]2c2ccc3c(c2)OCO3)cc1

Six entries picked at random from those above, as already listed:
HNF4A DNA FP,RanGTP-Imp inh,AF4-AF9 inh,UCH37 inh,E coli growth,Vif TR-FRET,FGF22 binding,SMILES
2.2,1.4,-9.0,-1.2,0.73,-5%,i,Cc1nnc(NC(=O)C(C)Sc2nncn2C)s1 (stereo unspecified)
-4.3,·,0.9,·,·,·,i,CC(=O)c1ccccc1NC(=O)CN1C(=O)NC2(CCCCCCC2)C1=O
1.2,-3.9,·,-1.0,0.7,6%,·,CCOC(=O)C(C)Sc1nc(C2CC2)cc(C(F)(F)F)c1C#N (stereo unspecified)
-4.6,0.7,-11,5.8,0.76,17%,i,COCCCN(C(=O)Cn1ncc2c(=O)oc3ccc(C)cc3c21)C(C)c1ccncc1 (stereo unspecified)
0.6,·,3.3,·,·,1%,i,COc1cc(/C=C/C(=O)OCC(=O)c2ccc[nH]2)ccc1O
-2.6,2.5,0.4,-4.1,0.65,7%,i,Cc1[nH]nc2c1[C@@H](c1ccccc1[N+](=O)[O-])C(C#N)=C(N)O2

Other results
HNF4A DNA FP,RanGTP-Imp inh,AF4-AF9 inh,UCH37 inh,E coli growth,Vif TR-FRET,FGF22 binding,SMILES
-3.8,4.4,0.8,1.2,0.67,0%,i,O=C(NCC(c1ccco1)N1CCc2ccccc21)C(=O)Nc1ccccc1 (stereo unspecified)
1.7,2.3,·,5.1,0.73,-2%,·,CC(=O)Oc1ccc2ccccc2c1C(NC(=O)Cc1ccccc1)c1ccccc1 (stereo unspecified)
-1.6,-2.9,·,0.7,0.69,-1%,·,COc1ccccc1NC(=O)CSCc1nc2ccccc2[nH]1
-2.3,·,1.1,6.7,0.71,6%,i,CN(C)C(=O)CCc1ccc2c3c([nH]c2c1)[C@]1(C)[C@@H](C(=O)N2CCOCC2)C[C@H](CC(=O)NCc2cccc(C(F)(F)F)c2)C(=O)N1CC3
0.9,-6.0,·,0.1,0.78,-5%&-26%,·,NC(=O)C1(N2CCCCC2)CCN(c2nc(-c3ccc(Br)cc3)cs2)CC1
-2.2,0.4,·,5.9,0.68,-6%,·,CN(C)/C=C1/Nc2ccccc2C1=O
-4.5,4.3,0.7,-19,0.66,-10%,·,COc1ccc(OC)c(-c2csc(NC(=O)c3ccc4c(c3)OCO4)n2)c1
0.0,2.4,-0.7,2.4,0.7,8%,i,Cc1cccnc1NC(=O)C1COc2ccccc2O1 (stereo unspecified)
-0.4,-1.3,·,-0.4,0.65,23%,·,CCOC(=O)CC12CN3CN(C1)CC(CC(=O)OCC)(C3)C2=O
0.0,0.7,-1.8,-14,0.76,79%,i,O=C(c1ccc2c(c1)[nH]c(=S)n1c3ccccc3nc21)N1CCN(c2cccc(Cl)c2)CC1
1.9,·,1.8,·,·,-7%,i,COc1ccc(N(C)S(=O)(=O)c2cccc(C(=O)OCC(=O)Nc3cc(C)ccc3OC)c2)cc1
20,11,2.2,·,·,17%,i,CN1CCc2c(sc(/N=C/c3cc(Cl)ccc3O)c2C#N)C1
-4.2,-4.4,-1.5,4.0,0.69,3.9µM*,i,O=C(O)c1ccc2c(c1)C1C=CCC1C(c1ccncc1)N2 (stereo unspecified)
0.1,-1.1,·,0.5,0.67,7%,·,Cn1ncc([N+](=O)[O-])c1C(=O)N1CCOCC1
32*,-3.6,·,2.4,0.71,13%,·,O=S(=O)(c1ccc(Br)s1)N1CCN(c2ccccc2)CC1
5.7,-2.8,-17,5.8,0.73,-8%,i,CCOc1ccc(-c2n[nH]c(=S)c3ccccc23)cc1
-1.9,-0.8,·,3.6,·,-5%,·,O=C(CC(=O)c1ccccc1)Nc1cccnc1Cl
-0.4,-2.5,·,-1.4,0.71,3%,·,O=C(COC(=O)C1CC(=O)N(c2ccc3c(c2)OCCO3)C1)Nc1ccc2c(c1)CCC2 (stereo unspecified)
-0.5,0.8,0.0,0.2,0.7,-3%,i,CC(NC(=O)CNC(=S)N(Cc1cccs1)C1CCCC1)c1ccccc1 (stereo unspecified)
1.6,0.5,3.8,3.5,0.7,·,i,CCOc1ccccc1NC(=O)c1nc(S(=O)(=O)Cc2ccccc2)ncc1Cl
-0.8,0.6,·,3.3,0.63,1%,·,CC(C)OC(=O)CCNc1n[nH]c(=O)[nH]c1=O
1.1,-4.8,-3.5,·,·,-7%,i,C/C(CCc1ccccc1)=N\NC(=O)C(=O)Nc1cccc(Cl)c1
-6.1,5.4,-6.9,0.6,0.6,1%,i,CC(=O)N1CCc2cc(S(=O)(=O)CCC(=O)Nc3cc(C)cc(C)c3)ccc21
-4.4,-1.3,-1.0,1.7,0.72,-2%,i,Cc1cc(OCC(=O)NNC(=O)c2ccncc2)ccc1C(C)C
-3.3,·,-2.7,0.1,0.66,·,i,COc1cccc(-c2ccc3ncnc(NCc4cc(C)cs4)c3c2)c1
-3.4,-3.4,-6.6,-0.6,0.75,·,i,O=C(COC(=O)Cc1cccc2ccccc12)Nc1ccccc1-c1ccccc1
-2.5,2.2,-1.5,1.2,0.66,-5%,i,Cc1cccnc1NC(=O)NC(=O)c1ccc(C(C)(C)C)s1
-2.1,6.9,-3.2,·,·,?,i,O=C(N/N=C/c1ccc([N+](=O)[O-])o1)C(=O)Nc1ccc(C(=O)O)cc1
6.1,·,5.2,·,·,·,i,COc1ccccc1-n1nnnc1SCC(=O)NCC1(N2CCCCC2)CCCCC1
-1.6,·,2.9,-0.4,0.72,·,i,CN(C(=O)c1ccc(NC(=O)Cc2cccc(NC(=O)C3CCN(C(=O)c4ccccc4)CC3)c2)cc1)C1CCCC1
0.8,3.1,3.4,2.2,0.65,3%,i,O=C(COC(=O)C1(c2ccccc2)CC1)NNC(=O)c1ccccc1F
6.0,-2.8,-2.0,·,·,·,i,Cc1ccc(/C=N/NC(=O)c2n[nH]c3c2CCCC3)cc1
4.0,0.3,3.2,·,·,0%,i,Cn1cccc1/C=N/NC(=O)c1ccccn1
25,·,-2.1,1.5,0.72,-5%,i,NS(=O)(=O)c1ccc(CNC(=S)NC(=O)c2ccco2)cc1
0.0,-0.4,·,0.0,0.73,-1%,·,O=C(NCCc1ccccc1)C(=O)NCC1(c2ccccc2)CCCC1
-0.2,-0.6,-3.2,0.7,0.68,·,i,COc1ccc(C(=O)NCCCNC(=O)c2cccnc2)cc1OC
0.1,8.8,·,2.0,0.82,3%,·,O=C(CNCCO)N1CCc2ccccc21
-1.2,6.4,·,-0.5,0.65,·,·,Cc1nc(Oc2ccccc2)c2ccccc2n1
1.5,-1.6,-2.9,3.7,0.69,5%,i,Cc1ccccc1N1CC2=C(C1=O)C(c1ccccc1)NC(=O)N2C (stereo unspecified)
0.6,-3.2,-3.8,0.6,0.67,·,i,O=C(NCc1ccc(F)cc1)C(c1ccccc1)c1ccccc1
1.8,0.6,·,2.4,0.72,8%,·,Cc1nnc(Nc2ccc(C(=O)NCCO)cc2)c2ccccc12
0.1,·,1.9,0.9,0.64,-2%,i,O=C(OCc1ccccc1)/C(=C/c1cccc([N+](=O)[O-])c1)NC(=O)c1ccco1

Some of the compounds tested. The share of hits here may be higher or lower than overall.
